High-throughput results deposited in PubChem by National Center for Advancing Translational Sciences (NCATS).
TsaE inh: qHTS Assay for Inhibitors of YjeE | purified YjeE, fluorescence polarisation of a bound ADP probe | 0.05% of 71,000 active | tRNA threonylcarbamoyladenosine biosynthesis protein TsaE (Escherichia coli (strain … | Potency, µM; active = well fitted falling curve; inconclusive = weaker or top-dose-only fall, or a rising curve; inactive = flat or poorly fitted curve;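 note: top concentration of the series not given in the record; excess ADP was the control for the full effect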
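Purified YjeE (10 uM) with BODIPY Texas Red-labeled ADP probe (2 uM); compounds pin-transferred, 15 min at room temperature. Binding inhibition read as decreased fluorescence polarization; ADP titration as control.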
Bst PK mod: Pyruvate Kinase; partly purified Bacillus stearothermophilus pyruvate kinase, luminescence ATP production; ribose 5-phosphate activator present at AC10; 1.2% of 51,000 active; AID 361, 2006; Potency, µM; in the data active means potency below about 11 µM; inconclusive means mostly about 12 µM to 25 µM; inactive means weaker than that;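 the screen sought inhibitors and activators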;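 note: potency is the fitted concentration of half-maximal effect; scaled between full activation by ribose 5 phosphate and full inhibition by luteolin; about four in five hits inhibit and the cells do not say which; series up to 57 µM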
An asterisk follows results filed as active; i = inactive; u = inconclusive; x = not tested or not shown.

SMILES	TsaE inh	Bst PK mod
COc1cc(CN2CCC(C(=O)N3CCCC(C)C3)CC2)cc(Br)c1O (stereo not drawn)	i	>57
Cc1ccc(-c2noc(CCC(=O)N(C)c3ccccc3C)n2)cc1	i	>57
Brc1ccc(CSc2nnc(Cc3c[nH]c4ccccc34)o2)cc1	i	>57
O=S(=O)(c1cccc(-c2nc3ccccc3s2)c1)N1CCCC1	i	>57
CNC(=O)Nc1cccc(NC(=O)NC)n1	x	>26
c1cc2nnnn2nc1N1CCCCC1	i	>57
Cc1ccc(NC(=O)CS(=O)CC(=O)Nc2cccc(C)c2C)cc1F (stereo not drawn)	i	>57
COc1cc2c(cc1OC)C(/C(C#N)=N\O)=NC(C)(C)C2	i	>57
Cc1cc(-c2c(C)n([O-])c(C)c(C)[n+]2=O)ccc1F	i	x
Cc1ccnc(SCC(=O)N2CCN(c3cccc(Cl)c3)CC2)n1	i	>57
CCC(Sc1nnc(C)s1)C(=O)Nc1nccs1 (stereo not drawn)	i	i
COC(=O)C1CCN(C(=O)C(C)Oc2ccc(Cl)cc2Cl)CC1 (stereo not drawn)	i	>11
N=C(N)SCc1cccc(-c2nc3ccccc3c(=O)o2)c1	i	x
Cc1cc(=O)oc(C)c1C(=O)OCC(=O)c1ccccc1	i	x
O=C(Nc1nc(-c2ccccn2)cs1)C1CC1	i	x
COc1ccc(S(=O)(=O)NC2CC3CCC2C3)cc1Cl (stereo not drawn)	i	>57
O=c1c2ccccc2[nH]c(=S)n1CCCN1CCN(C2CCCCC2)CC1	i	>57
CS(=O)(=O)N(CC(=O)NC1CC1)c1cccc(F)c1	i	>57
CCOC(=O)c1ccc(NC(=O)Cn2nnc(-c3ccccc3)n2)cc1	i	>57
CCCc1n[nH]c(=O)[nH]1	i	>57
O=S(=O)(c1ccc(OCC(O)CN2CCN(c3ccccc3)CC2)cc1)N1CCOCC1 (stereo not drawn)	i	>57
CSCCC1NC2(C(=O)Nc3c(Cl)cccc32)[C@@H]2C(=O)N(C3CCCC3)C(=O)[C@H]12 (stereo partly drawn)	i	>57
O=C(c1ccccc1)C(Sc1ncn[nH]1)c1ccccc1 (stereo not drawn)	i	x
O=C(Cn1cnc2c(nnn2Cc2ccccc2)c1=O)N1CCN(c2ccccc2)CC1	i	x
COc1ccc(-n2c(=O)c(-c3cccs3)nc3cnc(N4CCNCC4)nc32)cc1	i	x
N#Cc1cccc(-c2nccc(NCc3ccccc3)n2)c1	i	x
O=C(C[C@@H]1C=Cc2ccccc2N1C(=O)c1ccccc1)c1ccccc1	i	x
CC(=O)O[C@]1(C(C)=O)CC[C@@H]2[C@@H]3C=C(C)C4=CC(=O)CC[C@@]4(C)[C@H]3CC[C@]21C	i	x
COc1ccc(C(C)(C)C)cc1NC(=O)COC(=O)c1cnc(C)cn1	i	>57
CCOC(=O)N1CCN(Cc2cn3ccccc3n2)CC1	i	>57
CCn1c(=O)n(CC)c2cc(S(=O)(=O)N3CCC(c4ccccc4)CC3)ccc21	i	>57
N=c1c(C(=O)NCc2ccco2)cc2c(=O)n3ccccc3nc2n1CCc1ccccc1	i	x
CCCCNC(=O)C1CCN(S(=O)(=O)c2cnc[nH]2)CC1	i	>57
CCOC(=O)c1cccc(NC(=O)Cn2c(CC(=O)NC)nc3ccccc32)c1	i	>57
CCOC(=O)c1csc(NC(=O)CSc2nnc(C3CC3)n2C)n1	i	>57
CC1Cc2ccccc2N1C(=O)CSc1nnc(CSc2ncccn2)n1C (stereo not drawn)	i	>57
O=S(=O)(c1cccs1)N1CCN(C/C=C/c2ccccc2)CC1	i	>57
CCOC(=O)C1CCCN(C(=O)c2ccc3c(=O)n(CCOC)c(=S)[nH]c3c2)C1 (stereo not drawn)	i	>57
CC(C)C(=O)C(C)(C)CCc1ccccn1	i	x
CCN(CC)CC(=O)Nc1ccc2c(c1)Nc1ccccc1CC2	i	>57
Cc1noc(C)c1-c1nccc(NC2CC2)n1	i	x
CC(=O)c1ccc(N(C)C)c2c(N(C)C)cccc12	i	>57
Cn1c(SCc2nc3ccccc3n2CCO)nc2ccccc21	i	>57
CCOC(=O)N1CCC(NC(=O)c2cc(S(=O)(=O)N3CCOCC3)ccc2F)CC1	i	>57
O=C(O)C1=CCNCC1	i	x
N#Cc1c(-c2ccco2)nc(SCc2ccc(F)cc2)[nH]c1=O	i	>57
CC(C)n1c(C(=O)OCC(=O)NCc2ccc3c(c2)OCO3)cc2occc21	i	>57
Cc1[nH]c(=O)[nH]c(=O)c1S(=O)(=O)N1CCCC(C(=O)N2CCC(Cc3ccccc3)CC2)C1 (stereo not drawn)	i	x
CC(C)(C)c1cnnn1-c1ccc(NC(=O)c2ccc(Br)o2)cc1	i	>57
Cc1nc(SC2C=CS(=O)(=O)C2)n[nH]1 (stereo not drawn)	x	>26
Fc1ccccc1CSc1nnc(-c2cnccn2)n1Cc1ccco1	i	>57
CCOc1ccc2cc(C#N)c(SCC(=O)NC(C)CC)nc2c1 (stereo not drawn)	i	>57
N#CC1=C2SCN(c3ccc(F)cc3)CN2C(=O)CC1c1cccc(F)c1 (stereo not drawn)	i	x
CCCN1C(=O)c2ccccc2NC1c1ccc(OC)cc1O (stereo not drawn)	i	>57
COc1ccc(NC(=O)CN2CCC3(O)CCCCC3C2c2ccccc2OC)cc1 (stereo not drawn)	i	>57
CC(C)(C)OC(=O)N1CCC[C@H]1c1nnc(SCc2ccccc2F)o1	i	>57
C=CCn1c(SCn2nnc3ccccc3c2=O)nc2scc(-c3cccs3)c2c1=O	i	>57
CC(=O)CCc1c(C)[nH]c2ccccc2c1=O	i	x
c1ccc(CCNC2=NCCCS2)cc1	i	>57
CCS(=O)(=O)N1CCC(C(=O)NCCCN2CCCC2)CC1	i	>57

A draw from above in order of SMILES length, smallest number first:
SMILES	TsaE inh	Bst PK mod
CC(=O)CCc1c(C)[nH]c2ccccc2c1=O	i	x
CCCN1C(=O)c2ccccc2NC1c1ccc(OC)cc1O (stereo not drawn)	i	>57
Fc1ccccc1CSc1nnc(-c2cnccn2)n1Cc1ccco1	i	>57
CCOc1ccc2cc(C#N)c(SCC(=O)NC(C)CC)nc2c1 (stereo not drawn)	i	>57
CC(C)(C)c1cnnn1-c1ccc(NC(=O)c2ccc(Br)o2)cc1	i	>57
COc1ccc(NC(=O)CN2CCC3(O)CCCCC3C2c2ccccc2OC)cc1 (stereo not drawn)	i	>57
CC(C)n1c(C(=O)OCC(=O)NCc2ccc3c(c2)OCO3)cc2occc21	i	>57

The listing continues.
SMILES	TsaE inh	Bst PK mod
COc1ccc(N2CCN(Cc3nc4c(c(=O)[nH]c(=O)n4C)n3CCCc3ccccc3)CC2)cc1	i	>57
CC1=CC(C)(C)N2C(=O)C3(C(C#N)=C(N)Oc4cc(C)oc(=O)c43)c3cccc1c32 (stereo not drawn)	i	>57
O=c1c2ccccc2cnn1-c1nc2ccccc2s1	i	0.16*
c1ccc(CCn2nnnc2C(c2cccnc2)N2CCN(c3ccccc3)CC2)cc1 (stereo not drawn)	i	>57
Cc1cccc(N2CCN(C(=O)c3cc4c(C)nc5ccccc5c4o3)CC2)c1C	i	x
O=C(O)c1ccccc1C(=O)OCCCCOC(=O)c1ccccc1C(=O)O	i	x
COc1ccc(CN2C(=O)c3ccccc3C2C(=O)NC2CCCC2)c(OC)c1 (stereo not drawn)	i	>57
O=C(Oc1ccccc1)N1CCC2(CC1)CN(c1ccccn1)C2	i	x
O=C(CSc1ccccn1)c1ccc(F)cc1	i	x
CC1=CC(C)(C)N(C(=O)c2ccccc2)c2ccccc21	i	x
CN(C)Cc1nc2ccccc2c(=O)n1Cc1nc(-c2cc3ccccc3o2)cs1	i	>57
CCc1ccc(OCc2nc(-c3ccccn3)no2)c(Br)c1	i	u
O=C(O)CCC(=O)Nc1ccc2ccccc2c1	i	x
COc1ccc2[nH]cc(CCNc3nc(-c4cccnc4)nc4ccccc34)c2c1	i	x
Cc1ccc(C(c2nnnn2C(C)(C)C)N(Cc2ccco2)Cc2cccs2)cc1 (stereo not drawn)	i	>57
CN(Cc1ccccc1)c1nc2c(c(=O)[nH]c(=O)n2C)n1C	i	>57
CCc1ccccc1N(C(=O)c1cccs1)C1C=CS(=O)(=O)C1 (stereo not drawn)	i	>57
COc1ccc2c(c1)CCc1c(C(=O)N3CCOCC3)noc1-2	i	x
O=C(CCN1CCN(CCO)CC1)Nc1ccc(OCc2ccccc2)cc1	i	>57
COc1ccccc1CN1C(=O)[C@@H]2C(CC(N)=O)NC3(C(=O)Nc4c3ccc(Cl)c4C)[C@@H]2C1=O (stereo partly drawn)	i	>57
COc1ccc(N2CCN(C(=O)C(CCSC)N=C3NS(=O)(=O)c4ccccc43)CC2)cc1 (stereo not drawn)	i	>57
Cc1noc(C)c1COc1ccc(C(=O)OCC(=O)NC(=O)C2COc3ccccc3O2)cc1 (stereo not drawn)	i	>57
CN=C1SC(C(=O)O)CC(=O)N1C (stereo not drawn)	i	>57
O=C(CCc1ccc(O)cc1)c1c(O)cc(O)cc1O[C@@H]1O[C@@H](CO)[C@@H](O)[C@@H](O)[C@H]1O	i	x
O=C(c1ccncc1)c1ccc(Br)cc1	i	>57
O=C1c2ccccc2C(Nc2ccc3c(c2)OCO3)N1Cc1ccco1 (stereo not drawn)	i	x
Cc1ccc(-c2nc(CSCC(=O)N3CCOCC3)c(C)o2)cc1	i	>57
CS(=O)(=O)N1CCC(NC(=O)Cc2ccccc2)CC1	i	>57
CCC1(CC)Cc2ccccc2-c2nc(CN3CCOCC3)[nH]c(=O)c21	i	>57
CCc1ccc2[nH]c(=O)c(CN(CCN(C)C)C(=O)Nc3ccccc3)cc2c1	i	x
O=c1cc(-c2cccc(O)c2)oc2c(O)c(O)ccc12	i	x
Cc1cccc(CSc2nnc(-c3ccccn3)n2N)c1	i	>57
C/C(N)=C(/C#N)C(=O)COC(=O)c1cc(C)n(-c2ccc(F)cc2)c1C	i	>57
Cn1c(=O)c2c(ncn2CC(=O)N(Cc2ccccc2)c2ccccn2)n(C)c1=O	i	>57
CC(C)(C)OC(=O)N1CCC[C@H]1c1nnc(SCc2ccc(Cl)cc2Cl)o1	i	>57
O=S(=O)(c1ccccc1)N1CCC2(CC1)CN(c1ccccn1)C2	i	x
C1CCN=C(Nc2nc3c(s2)CCCC3)CC1	i	>57
C=CCOn1c(=O)c(C)[n+]([O-])c2ccccc21	i	x
CC(=O)N1CCN=C1SCc1ccccc1	i	x
CCOCCCNC(=O)CN1C(=O)C(CC)Oc2ccccc21 (stereo not drawn)	i	>57
Cc1nn(Cc2ccccc2)c(C)c1NC(=O)CSc1nc2sc3c(c2c(=O)n1C)CCC3	i	>57
c1ccc2sc(SN3CCOCC3)nc2c1	i	>57
Clc1ccc(-c2nnn(Cc3nc4ccccc4s3)n2)cc1	i	>57
CCOC(=O)C1CCCN(C(=O)c2cc(Cl)ccc2Cl)C1 (stereo not drawn)	i	>57
Cc1cc(C)cc(N(CC(=O)O)S(=O)(=O)c2cccnc2)c1	i	x

Gathered by group: those above with a thiophene ring, fused or not
SMILES	TsaE inh	Bst PK mod
COc1ccc(-n2c(=O)c(-c3cccs3)nc3cnc(N4CCNCC4)nc32)cc1	i	x
O=S(=O)(c1cccs1)N1CCN(C/C=C/c2ccccc2)CC1	i	>57
C=CCn1c(SCn2nnc3ccccc3c2=O)nc2scc(-c3cccs3)c2c1=O	i	>57
Cc1ccc(C(c2nnnn2C(C)(C)C)N(Cc2ccco2)Cc2cccs2)cc1 (stereo not drawn)	i	>57
CCc1ccccc1N(C(=O)c1cccs1)C1C=CS(=O)(=O)C1 (stereo not drawn)	i	>57
Cc1nn(Cc2ccccc2)c(C)c1NC(=O)CSc1nc2sc3c(c2c(=O)n1C)CCC3	i	>57

Further entries
SMILES	TsaE inh	Bst PK mod
Cn1cccc1C(=O)N1CCC2(CCCN(Cc3nccs3)C2)CC1	i	x
COC(=O)[C@H](CCSC)NC(=O)Nc1ccc(C)cc1	i	>57
CCN(C(=O)COC(=O)c1cnc(C)cn1)C1CCCCC1	i	>57
COc1ccc(C)cc1NC(=O)Cn1cnc2sc(C)c(S(=O)(=O)N3CCOCC3)c2c1=O	i	>57
CC1CCCC(NC(=O)c2n[nH]c(=O)c3ccccc23)C1C (stereo not drawn)	i	>57
CC1(C)CC(=O)C2=C(C1)N(CCN1CCOCC1)C1=C(C(=O)CC(C)(C)C1)C2c1ccc(Cl)cc1	i	>57
CCN(CC)S(=O)(=O)c1cc(C(=O)Nc2ccccn2)ccc1C	i	i
COc1ccccc1N1CCN(CCCCNC(=O)c2ccc3ccccc3c2)CC1	i	x
Cc1ccc2c(c1)[nH]c1c(=O)n(Cc3ccccn3)cnc12	i	>57
O=C(c1cc2ccccc2oc1=O)N(Cc1cccs1)C1CCS(=O)(=O)C1 (stereo not drawn)	i	>57
COc1ccc(C(=O)Nc2nc(N)n(-c3ccccc3)n2)cc1OC	x	>26
O=C(Cc1cc(=O)[nH]c(=O)[nH]1)NCCN1CCOCC1	i	x
O=C(c1cc(-c2ccco2)on1)N1CCCc2ccccc21	i	>57
O=C(Nc1ccccc1N1CCN(c2ccccc2)CC1)C1CCCCC1	i	>57
CCOc1cc2[nH]c(=S)n(CCCCC(=O)NCc3ccco3)c(=O)c2cc1OCC	i	>57
Cc1ccc(C)c(N2CCN(C(=O)Cn3cccc3)CC2)c1	i	>57
CC1CN(C(c2cccs2)c2sc3ncnn3c2O)CC(C)O1 (stereo not drawn)	i	x
Cc1nnc(SCC(=O)Nc2ccc3c(c2)COC3=O)n1-c1ccccc1	i	x
COc1cc(C(=O)Nc2ccc(S(=O)(=O)N3CCCCC3C)cc2)cc(OC)c1OC (stereo not drawn)	i	x

Only part of the results is shown, so the mix of outcomes need not match the whole.
